Bioassay records from PubChem.
YopH PTP inh = YopH (Yersinia) phosphatase inhibition | fluorescence Ex485/Em525 | 140,000 compounds, 0.16% hits | inhibition, %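 (about 10 µM by stock and volumes)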;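 active = inhibition of 50% or more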;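 also: controls were vehicle for no effect and minimum signal wells for full effect; inactives centre near -20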
Mtb growth = M. tuberculosis H37Rv growth inhibitors, H37Rv strain (AID 1626). M. tuberculosis H37Rv growth inhibition; higher % means a stronger effect. inhibition, % at 10 µM; hits with a dose series show IC50 in µM. 220,000 compounds, 0.95% hits;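 active = confirmed in a dose series; inconclusive = inhibition above 80% but not taken into the dose series; inactive = below 80% or under 30% at every dose of the series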;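 also: bacteria incubated seven days before Alamar blue readout; 0% = bacteria only wells and 100% = bacteria with antibiotic wells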
Arbovirus inh = arbovirus infection inhibition | arbovirus infection cell-based antiviral screen | inhibition, % at 10 µM | 200,000 compounds, 0.37% hits;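 active = inhibition from about 30%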;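 also: bluetongue infection of BSR cells; cell survival read as ATP light after 72 h; 0% = infected wells without compound and 100% = uninfected wells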
Mtb bLac sens = beta-lactam sensitization of Mtb H37Rv; M. tuberculosis H37Rv growth with meropenem, percent inhibition; hits of this screen are not shown here; inhibition, % at 25 µM; 330,000 compounds, 0.27% hits; AID 434955;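 active = about 74% or more and at least 40 points above the plate without the antibiotic, then above 30% in a dose series; inconclusive = first-round hits that could not be retested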;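 also: growth measured after seven days incubation then overnight dye step; 0% = bacteria only wells and 100% = bacteria with antibiotic; twin plates without the antibiotic show which effects depend on it; some results filed as inactive read as strong as hits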
RecA splice inh = inhibitors of M. tuberculosis RecA intein splicing; P9WHJ3; cell-free RecA intein splicing, fluorescence; inhibition, %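 (about 9 µM by stock and volumes)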; 290,000 compounds, 0.75% hits; AID 2221; in the data active = inhibition above about 30%; inconclusive = no clear call, values can overlap the other calls;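 also: 0% = vehicle wells and 100% = reference inhibitor control wells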
Target sequence (P9WHJ3 whole entry, looked up, canonical isoform): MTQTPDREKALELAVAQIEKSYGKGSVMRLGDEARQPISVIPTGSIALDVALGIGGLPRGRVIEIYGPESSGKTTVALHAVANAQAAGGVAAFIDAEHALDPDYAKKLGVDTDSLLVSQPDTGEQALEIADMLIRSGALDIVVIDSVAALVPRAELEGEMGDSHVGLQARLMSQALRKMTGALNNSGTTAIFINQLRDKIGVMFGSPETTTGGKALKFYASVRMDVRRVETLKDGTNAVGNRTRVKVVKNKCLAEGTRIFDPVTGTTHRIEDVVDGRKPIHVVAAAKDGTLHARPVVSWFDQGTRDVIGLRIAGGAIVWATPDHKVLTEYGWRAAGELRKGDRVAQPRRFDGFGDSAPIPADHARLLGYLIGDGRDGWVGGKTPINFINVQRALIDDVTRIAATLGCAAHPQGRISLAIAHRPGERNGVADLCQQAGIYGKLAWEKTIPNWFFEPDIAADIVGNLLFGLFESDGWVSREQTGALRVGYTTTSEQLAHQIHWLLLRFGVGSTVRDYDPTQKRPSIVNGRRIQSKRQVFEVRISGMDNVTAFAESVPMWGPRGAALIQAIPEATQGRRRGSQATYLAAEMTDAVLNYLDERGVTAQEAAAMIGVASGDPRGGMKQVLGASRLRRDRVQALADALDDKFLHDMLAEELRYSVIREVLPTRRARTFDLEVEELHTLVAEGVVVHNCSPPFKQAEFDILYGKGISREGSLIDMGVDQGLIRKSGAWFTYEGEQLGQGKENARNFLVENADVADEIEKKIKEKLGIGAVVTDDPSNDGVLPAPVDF
Arbovirus inh repeat = further read-out of Arbovirus inh, marked with its call; inhibition, %; measured here: 10K subset replicate screen; many hits read low in the repeat;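 first of two repeat runs on a subset; 0% = infected and 100% = uninfected wells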
Active calls of the source: *; ? = inconclusive; / = no result given. This is a subset; the hit share may differ from the screen's.

SMILES	YopH PTP inh	Mtb growth	Arbovirus inh	Mtb bLac sens	RecA splice inh	others
COc1cc(C2c3c(oc4c(C)cc(C)cc4c3=O)C(=O)N2Cc2cccnc2)ccc1O (stereo not given)	-22.8	-8.8%	/	-8.3	1.6
O=C(CNC(=O)c1ccc(F)cc1)c1ccccc1	/	/	/	6.8	0.0
O=C(CSc1ccccc1)NC1=NCCS1	/	-1.9%	/	0.0	0.2
CCCN(CCC)C(C)C(=O)NCC1(c2ccccc2)CCCC1 (stereo not given)	/	3.9%	-2.6	-11.0	5.4
Cc1nc([N+](=O)[O-])cn1Cc1cccc([N+](=O)[O-])c1	/	-6.7%	-0.9	2.6	-3.8
O=C(NCCCN1CCOCC1)C1Cc2c(ccc3ccccc23)O1 (stereo not given)	/	0.1%	3.8	-1.2	-3.4
O=C1CC(N2CCSCC2)C(=O)N1c1cccc(Br)c1 (stereo not given)	/	-4.2%	2.2	-2.9	-1.2
CCOC(=O)C1CCCN(c2cc(NCCCO)c([N+](=O)[O-])c3nonc23)C1 (stereo not given)	-17.3	1.8%	-1.5	-10.4	-6.3
CC(Sc1nncn1-c1ccccc1)C(=O)Nc1cccc([N+](=O)[O-])c1 (stereo not given)	-18.2	-0.8%	5.2	-5.7	-8.8
Cc1cc(C)c2nc(SCC(=O)N3CC(=O)Nc4ccccc43)c(C#N)cc2c1	-11.2	/	-21.4	2.9	0.5
Cc1ccc(CNC(=O)CN(c2cccc([N+](=O)[O-])c2)S(=O)(=O)c2ccccc2)cc1	-21.9	7.2%	5.2	8.9	7.0
COc1ccc2c(c1)nc(SCC(O)c1ccccc1)n2C (stereo not given)	/	0.3%	8.4	-2.5	-5.3
CCNc1nc(Cl)nc(NC2CCCCC2)n1	/	/	/	-7.4	6.4
Nc1nc(C23CC4CC(CC(C4)C2)C3)[nH]c(=O)n1	/	-7.2%	/	-3.9	-0.4
O=C(N/N=C/c1cccs1)c1cncc(Br)c1	/	7.2%	11.1	99.9	0.8
O=C(/C=C/Nc1ccccc1F)c1ccc(Br)cc1	-20.7	6.2%	-10.2	-4.1	5.9
Cc1ccc(N=C(NOCc2ccc(Cl)cc2Cl)c2nonc2N)c(C)c1	-1.9	7.9%	-41.8	14.7	23.5
Cc1cc(C[n+]2cc(Cl)ccc2N)c2ncccc2c1	/	-0.8%	/	-7.9	-9.3
CN(C(=O)Nc1ccccc1)C1CCCc2ccccc21 (stereo not given)	/	/	/	-1.2	2.4
O=c1cc2c(nn1Cc1ccccc1)-c1ccccc1CC2	/	0.1%	-8.9	0.0	7.5

In the list so far, these have sulfur.
SMILES	YopH PTP inh	Mtb growth	Arbovirus inh	Mtb bLac sens	RecA splice inh	others
O=C(CSc1ccccc1)NC1=NCCS1	/	-1.9%	/	0.0	0.2
O=C1CC(N2CCSCC2)C(=O)N1c1cccc(Br)c1 (stereo not given)	/	-4.2%	2.2	-2.9	-1.2
CC(Sc1nncn1-c1ccccc1)C(=O)Nc1cccc([N+](=O)[O-])c1 (stereo not given)	-18.2	-0.8%	5.2	-5.7	-8.8
Cc1cc(C)c2nc(SCC(=O)N3CC(=O)Nc4ccccc43)c(C#N)cc2c1	-11.2	/	-21.4	2.9	0.5
Cc1ccc(CNC(=O)CN(c2cccc([N+](=O)[O-])c2)S(=O)(=O)c2ccccc2)cc1	-21.9	7.2%	5.2	8.9	7.0
COc1ccc2c(c1)nc(SCC(O)c1ccccc1)n2C (stereo not given)	/	0.3%	8.4	-2.5	-5.3
O=C(N/N=C/c1cccs1)c1cncc(Br)c1	/	7.2%	11.1	99.9	0.8

Other records
SMILES	YopH PTP inh	Mtb growth	Arbovirus inh	Mtb bLac sens	RecA splice inh	others
COc1ccc(C)cc1NC(=O)C/C(C)=N/NC(=O)Cc1cccc2ccccc12	/	/	/	5.8	7.6
CCn1c(CSCc2ccc(Cl)cc2)n[nH]c1=S	/	3.8%	2.4	-12.8	4.5
CCn1c(SCC(=O)Nc2cc(C)on2)nnc1-c1cccnc1	-23.2	-5.4%	-0.6	-2.0	-4.3
O=C(CCCN1C(=O)c2cccc3cccc(c23)C1=O)N1CCN(c2ccccc2)CC1	-35.1	-1.2%	-9.5	0.9	-1.6
O=C(Nc1ccccc1)Nc1ccc2ncoc2c1	/	7.6%	3.2	-7.9	-4.0
Clc1ccc(OCCCN2CCCCC2)c(Br)c1	-14.2	1.2%	-23.9	-4.2	0.8
CCc1ccc2nc(NC(=O)CCCc3cccs3)sc2c1	-20.7	/	6.9	58.6	-0.1
CN(c1ccc([N+](=O)[O-])cc1/C=N/NC(=O)COc1ccccc1)C1CCCCC1	-50.3	1.5%	-11.1	4.1	-5.3
COCc1cc(CN2CCN(Cc3ccsc3)C(CCO)C2)ccc1OC (stereo not given)	/	-4.2%	-0.2	-8.6	1.1
N#CC1=C(S)N(c2ccccc2)C(c2ccc(-c3ccccc3Cl)o2)NC1=O (stereo not given)	-28.7	-1.8%	-7.1	-4.3	3.5

Structures shown so far containing a nitro group on carbon:
SMILES	YopH PTP inh	Mtb growth	Arbovirus inh	Mtb bLac sens	RecA splice inh	others
Cc1nc([N+](=O)[O-])cn1Cc1cccc([N+](=O)[O-])c1	/	-6.7%	-0.9	2.6	-3.8
CCOC(=O)C1CCCN(c2cc(NCCCO)c([N+](=O)[O-])c3nonc23)C1 (stereo not given)	-17.3	1.8%	-1.5	-10.4	-6.3
CC(Sc1nncn1-c1ccccc1)C(=O)Nc1cccc([N+](=O)[O-])c1 (stereo not given)	-18.2	-0.8%	5.2	-5.7	-8.8
Cc1ccc(CNC(=O)CN(c2cccc([N+](=O)[O-])c2)S(=O)(=O)c2ccccc2)cc1	-21.9	7.2%	5.2	8.9	7.0
CN(c1ccc([N+](=O)[O-])cc1/C=N/NC(=O)COc1ccccc1)C1CCCCC1	-50.3	1.5%	-11.1	4.1	-5.3

Next results.
SMILES	YopH PTP inh	Mtb growth	Arbovirus inh	Mtb bLac sens	RecA splice inh	others
Cc1cccc(-n2nnc3c(=O)n(Cc4ccccn4)cnc32)c1	/	-1.9%	-2.3	-7.3	-0.4
O=C(CN1CCN(c2ccc(F)cc2)CC1)Nc1ccccc1Br	/	/	/	-2.1	0.2
CCCCC(=O)NNC(=S)NC(=O)c1ccc([N+](=O)[O-])cc1	/	?	7.8	94.2	-4.4
CCCOC(=O)CSC1=C(C#N)C(c2ccc3c(c2)OCO3)CC(=O)N1 (stereo not given)	-45.5	-12.8%	-20.1	-1.8	1.7
CCC(C)NC(=O)CO/N=C/c1ccccc1OC(F)F (stereo not given)	-28.9	-7.3%	0.8	1.2	-2.0
Cc1c(S(=O)(=O)N2CCN(C(c3ccccc3)c3ccccc3)CC2)c(=O)n(C)c(=O)n1C	-46.6	-1.6%	-8.6	-2.3	2.6
CC(=O)NC1(C(F)(F)F)N=C(c2ccccc2)NC1=O (stereo not given)	-23.6	2.6%	0.8	-7.3	-1.2
Cc1ccccc1Nc1nc(N)nc(COC(=O)c2cccn2C)n1	-19.0	-13.4%	-4.5	9.6	-0.2
O=C(O)CN1C(=O)C(=O)N(Cc2ccc(Cl)cc2Cl)C1=O	/	/	/	-7.3	-3.0
O=C(NCc1ccco1)C(C(=O)c1ccccc1)n1ccccc1=O (stereo not given)	-24.2	1.2%	17.3	-16.6	-1.6
COc1ccc(-n2nnc3c(=O)n(CC(=O)N4CCCCC4)cnc32)cc1	-33.1	-0.4%	-6.9	-9.5	-7.3	Arbovirus inh repeat=3.8
CCOC(=O)/C(C#N)=C/c1cn(CCC(=O)O)nc1-c1cccc(Cl)c1	/	-2.5%	4.4	1.1	-4.2
CNC(=S)N(CCO)Cc1cc2cc3c(cc2[nH]c1=O)OCO3	/	/	/	-6.5	-0.2
CCN(CC(=O)Nc1c(F)cccc1F)C(=O)CCc1nc2sc3c(c2c(=O)[nH]1)CCCC3	/	/	/	-0.3	0.7
Cc1ccc(NC(=O)CN(C)C(=O)c2ccc(NC(=O)CC3SC(N4CCCC4)=NC3=O)cc2)cc1 (stereo not given)	/	/	/	3.9	-2.5
Cc1ccsc1C(=O)OCC(=O)N1CCOCC1	-32.6	-3.6%	8.2	-10.5	-0.9
S=C(Nc1ccccc1)Nc1cccc(Br)c1	/	5.6%	19.7	2.9	1.7
O=c1oc(-c2cccc(C(F)(F)F)c2)nn1-c1ccc(C(F)(F)F)cn1	/	-4.8%	/	70.1	0.4
O=c1oc2cc(Oc3ccc(C(F)(F)F)cc3[N+](=O)[O-])ccc2c2c1CCCC2	-44.0	-5.7%	-8.2	-3.1	1.1
OC(COCc1ccc(Cl)cc1)CN1CCc2ccccc2C1 (stereo not given)	-22.3	7.3%	0.6	1.9	-4.7
C(=C\c1ccccc1)/C=N/N1CCN(c2ccccn2)CC1	-31.7	-0.8%	-2.7	-0.4	4.3
CCn1nc(C(=O)OCC(=O)NCC(C)C)c2ccccc2c1=O	/	-4.5%	2.0	-5.8	-3.2
O=C(Nc1ccc2c(c1)OCCO2)C1CCCN(S(=O)(=O)Cc2ccccc2)C1 (stereo not given)	-12.4	-1.8%	4.3	-6.0	1.4
Cc1cc(NC(=O)COC(=O)CCNS(=O)(=O)c2cccc(C(F)(F)F)c2)no1	/	-0.3%	0.8	-0.2	4.3
Cc1ccc(-n2ncc3c2CC(C)(C)CC3NC(=O)CCc2cccnc2)cc1 (stereo not given)	/	/	/	1.1	0.8
Cc1ccc(/C=C/C(=O)NCCc2ccccc2)o1	/	/	/	-1.8	4.0
CCc1ccc2c(CN3CCc4cc(OC)c(OC)cc4C3)cc(=O)oc2c1	-27.2	4.8%	11.6	-5.1	-9.1
Cc1ccc(-n2c(C)nc3ccsc3c2=O)cc1	/	/	/	1.2	-1.0
Cc1cc(OCC(=O)Nc2ccc(F)c(F)c2)nc(C(C)C)n1	3.9	-2.6%	0.2	0.1	2.1
Cc1oc(-c2ccc(Cl)cc2)nc1CS(=O)CC(=O)N1CCC2(CC1)OCCO2 (stereo not given)	-28.8	1.6%	9.7	7.4	-0.8
O=C(O)/C=C/C(=O)NCCCc1ccccc1	/	1.7%	-2.2	1.5	-2.0
Cc1cc(C)c(-n2nnnc2SCC(=O)c2cccs2)c(C)c1	/	-5.8%	/	-0.7	-1.0
CCNC(=S)Nc1ccc(S(=O)(=O)Nc2cc(C)nc(C)n2)cc1	/	-2.8%	7.5	4.6	-0.9
COc1ccc2cc3c(N)nn(C(=O)Cc4c[nH]c5ccccc45)c3nc2c1	/	/	/	4.3	7.5
COC(=O)CCS(=O)(=O)c1ccc(Cl)cc1	6.4	-0.1%	8.2	-5.5	-2.1
Cc1onc(-c2ccccc2)c1C(=O)N1CCN(C)CC1	-8.8	-7.8%	5.2	-6.2	-1.8
CN(C)/C=N/c1nc2nccc(-c3ccc(Cl)cc3)n2n1	/	-3.1%	1.8	-8.9	-2.3
COc1cc(SC)ccc1C(=O)Nc1ccccc1	-18.5	-0.6%	3.9	0.4	-2.4
COc1cccc(CNC(=O)CN2CCC(c3nc4ccc(C)cc4[nH]3)CC2)c1	/	-2.5%	19.2	-1.4	-0.6
COc1ccccc1CCC(=O)N(C)C1CCCN(Cc2ccccc2F)C1 (stereo not given)	/	/	/	-2.0	0.6
Cc1ccc(CNC(=O)Cn2cnc(S(=O)(=O)N3CCC(C)CC3)c2)o1	/	/	/	-3.6	-1.1
O=C(Cn1[nH]c(=O)c2ccccc2c1=O)OCC(=O)N1CCc2ccccc2C1	-7.0	-15.0%	0.6	-4.6	2.8
COc1ccc(CC/C(=N\O)C2(O)CCCCC2)cc1	-43.6	-2.9%	2.7	-4.7	-2.3
CCCCCN(C(=O)CCC(=O)OCC(=O)Nc1cccc(SC)c1)c1c(N)n(CCCC)c(=O)[nH]c1=O	/	/	/	-4.3	0.0
COc1ccc(Cl)cc1C(=O)CSc1nnnn1C	/	-8.3%	-4.0	0.1	/
CN(C)CCCNc1c2ccccc2nc2ccccc12	/	/	/	6.1	-46.5
